Screening results (PubChem BioAssay)
Calb biofilm kill: mixture kills Candida albicans biofilm cells | actives 0.02% (n = 120,000) | AID 1242 | inhibition, % at 7.6 µM | C. albicans biofilm persisters + clotrimazole, fluorescence viability; primary screen in compound mixtures of four per well;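 active = inhibition above 30.3% in the primary screen of four-compound pools, then above 30% when the compound was retested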;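 also: compounds exposed to preformed 24 h biofilms for 48 h; the number belongs to the whole pool; some results filed as inactive read as strong as hits; inactives centre near 12; 0% = biofilm with clotrimazole alone and 100% = kill control; retested singly at about 60 µM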
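Test system: C. albicans CAF4-2 wild-type biofilms; buffer or medium: RPMI/MOPS medium, pH 7.0; schedule: 24 h biofilm formation, then 48 h compound exposure, 37 °C; detection: Alamar Blue fluorescence; measure: percent inhibition of biofilm viability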
Active calls of the source: *. The list is partial; rates above refer to the full screens.

No.	structure	Calb biofilm kill
1	Cc1cc(C)cc(NC(=S)N2CCN(c3ncc(C(F)(F)F)cc3Cl)CC2)c1	21
2	Cc1ccc(/C=N/Nc2nc(C(C)(C)C)cs2)o1	17
3	O=C(CCSCCc1ccccn1)Nc1cccc([N+](=O)[O-])c1	8
4	CCc1ccc(NC(=S)NCc2cccnc2)cc1	20
5	Cc1ccc(S(=O)(=O)N2CCOCC2)cc1NC(=O)COC(=O)c1cc(=O)c2ccccc2o1	9
6	Cc1c(C(=O)N2CCC(Cc3ccccc3)CC2)sc2ncnc(N3CCC(C)CC3)c12	14
7	CC(C)N(C(=O)CSc1nnc(NC(=O)Cc2cccs2)s1)C(C)C	8
8	O=C(NC1CCS(=O)(=O)C1)c1cccc(S(=O)(=O)N2CCCCCC2)c1 (centres undefined)	11
9	C/C=C/C=C/C(=O)N1CC[C@]23c4ccccc4N[C@H]4N(C)c5cccc6c5[C@]42CCN([C@H]6C2OC2(C)C)[C@H]13 (some centres undefined)	13
10	CCOC(=O)Cc1csc(NC(=O)/C=C/c2ccc(OC)cc2)n1	14
11	O=C(c1ccc([N+](=O)[O-])cc1)N1CCSC1c1ccccc1 (centres undefined)	16
12	CC(NC(=S)NCCc1ccccc1)C(c1cccs1)N1CCN(Cc2ccccc2)CC1 (centres undefined)	2
13	Cc1ccc(-c2nc3ccccc3c(=O)n2NC(=S)N(C)C)cc1	14
14	O=C(O)c1nn(CC(=O)N(C2CCCCC2)C2CCCCC2)c(=O)c2ccccc12	22
15	Oc1ccccc1-c1nc(/C=C/c2ccccc2)nn1-c1ccccc1	5
16	CCOc1cc2c3c(c1)C1(C(=O)N3C(C)(C)CC2C)C(C#N)=C(N)N2C(=C1C#N)Nc1ccccc12 (centres undefined)	5
17	S=C(NNc1ccnc2cc(Cl)ccc12)Nc1ccccc1Cl	18
18	CCCCC(=O)Nc1ccc(C(=O)NCCc2ccccc2)cc1	7
19	Cc1ccccc1C(=O)Nc1nnc(CC(=O)N/N=C/c2cn(Cc3ccccc3)c3ccccc23)s1	19
20	O=C(CO/N=C/c1ccccc1)Nc1c(F)c(F)c(F)c(F)c1F	6

7 compounds picked at random from the list so far:
No.	structure	Calb biofilm kill
11	O=C(c1ccc([N+](=O)[O-])cc1)N1CCSC1c1ccccc1 (centres undefined)	16
2	Cc1ccc(/C=N/Nc2nc(C(C)(C)C)cs2)o1	17
5	Cc1ccc(S(=O)(=O)N2CCOCC2)cc1NC(=O)COC(=O)c1cc(=O)c2ccccc2o1	9
13	Cc1ccc(-c2nc3ccccc3c(=O)n2NC(=S)N(C)C)cc1	14
15	Oc1ccccc1-c1nc(/C=C/c2ccccc2)nn1-c1ccccc1	5
18	CCCCC(=O)Nc1ccc(C(=O)NCCc2ccccc2)cc1	7
14	O=C(O)c1nn(CC(=O)N(C2CCCCC2)C2CCCCC2)c(=O)c2ccccc12	22

Next part.
No.	structure	Calb biofilm kill
21	O=C(c1cc2ccccc2oc1=O)N(Cc1ccccc1)CC1CCCO1 (centres undefined)	8
22	Cn1cc2cc(NC(N)=S)ccc2n1	14
23	O=C(/C=C/c1ccccc1[N+](=O)[O-])N1CCN(C(=O)c2ccco2)CC1	3
24	CCCn1c(NCc2ccccc2NS(=O)(=O)c2ccc(C)cc2)nc2ccccc21	8
25	CCN=C1SC(C(=O)Nc2cccc(Cl)c2)CC(=O)N1CC (centres undefined)	0
26	O=C(COC(=O)c1c2c(nc3ccccc13)CCCCC2)NCc1ccc2c(c1)OCO2	12
27	CCOC(=O)c1c(NC(=O)C2=C(C)NC(=S)NC2c2ccc(C)cc2)sc(C)c1C (centres undefined)	12
28	COCCn1c(Cc2cccn2C)nnc1SCC(=O)NCc1ccc2c(c1)OCO2	8
29	CN(C)S(=O)(=O)c1ccc(Cl)c(NC(=O)COC(=O)/C=C/c2cnc3ccccc3n2)c1	16
30	CC1CN(C(=O)C(C)N2CCN(c3cccc(Cl)c3)CC2)CC(C)O1 (centres undefined)	12
31	COC(=O)c1sccc1NC(=S)N1CCN(c2cc(C)ccc2C)CC1	14
32	Cc1ccccc1/C=C/c1cc[n+](C)cc1	6
33	Cc1cc(NC(=O)COC(=O)c2cccc(O)c2)no1	2
34	COc1cccc(OC)c1CN(C)C(=O)c1cnccc1C(F)(F)F	7
35	Cc1cc(N/C(=N/S(=O)(=O)c2cc(F)ccc2F)c2ccccc2)n(-c2ccccc2)n1	15
36	S=C(N/N=C/c1ccccc1Cl)Nc1cccc(Cl)c1Cl	29
37	COc1cc(OC)c(-c2nc3ccccc3s2)cc1OC	20
38	COc1ccccc1CN1CCNC(=O)C1CC(=O)NCCc1cnccn1 (centres undefined)	4
39	COc1ccc(-c2nc3n(c(=O)c2C#N)CCS3)cc1	5
40	CN1C(=O)SC(Nc2cccc3ccccc23)C1=O (centres undefined)	6
41	Cc1nc2c(C(=O)NCCc3ccccc3Cl)c[nH]n2c(=O)c1Cl	6
42	COc1ccc(NC(=O)C2CCCN2C(=O)Nc2cccc(F)c2)cc1 (centres undefined)	5
43	COc1ccc(Cc2nnc(NC(=O)c3ccc(OC)c(OC)c3)s2)cc1OC	16
44	COc1ccccc1-c1ccc(SCC(=O)NCc2ccc3c(c2)OCO3)nn1	7
45	COc1cccc(NC(=S)N(CCN(C)C)Cc2cccs2)c1	13
46	CCCCN1C(=O)CCC(C(=O)O)C1c1ccc(OC)cc1 (centres undefined)	3
47	Cc1nn(C)c(C)c1/C=N/NC(=O)CCn1cc([N+](=O)[O-])cn1	6
48	CN(C)CC/C=C1\c2cc(F)ccc2CSc2ccccc21	5
49	Cc1cccc(NC2=C(NCCO)C(=O)c3ccccc3C2=O)c1	6
50	O=C(CSc1ccc(-c2ccccc2)nn1)N1CCCc2ccccc21	3
51	CCN(CC)c1ccc(C(=O)c2ccccc2C(=O)O)c(O)c1	11
52	CN(NS(C)(=O)=O)c1c(C#N)c(C(F)(F)F)nn1C	13
53	COc1cccc2cc(C(=O)c3ccc([N+](=O)[O-])cc3)oc12	-3
54	CC1Cc2nc(SCC(=O)Nc3ccc4c(c3)OCO4)n(-c3ccc(F)cc3)c(=O)c2S1 (centres undefined)	14
55	CCC(C)C(NC(=O)/C(=C\c1ccccc1)NC(=O)c1ccc(OC)cc1)C(=O)O (centres undefined)	12
56	O=C1[C@@H]2[C@@H]3C[C@@H]([C@H]4ON=C(c5ccc(Cl)cc5)[C@@H]34)[C@@H]2C(=O)N1c1ccc2c(c1)OCO2	14
57	Cc1c(Cl)cccc1N(Cc1ccc(C(=O)O)cc1)S(=O)(=O)c1ccccc1	6
58	COCCNC(=O)C(OC(=O)C1=Cc2ccccc2OC1)C(C)C (centres undefined)	17
59	CC1(C)CC(NC(=O)C23CCC(C)(C(=O)C2=O)C3(C)C)CC(C)(C)N1 (centres undefined)	9
60	CSc1sc(C(=O)NCC2CC2)c(-c2cccs2)c1C#N	28
61	COC(=O)c1ccc(NC(=O)C2CCCN(S(C)(=O)=O)C2)cc1 (centres undefined)	8
62	CCOC(=O)C(NC(=O)NCc1ccccc1OC)(OCC)C(F)(F)F (centres undefined)	9
63	CC(=O)Nc1cccc(C(=O)OCC(=O)c2ccccc2Cl)c1	-1
64	CC(C)(C)c1ccc(-c2noc(CCC(=O)N3CCOCC3)n2)cc1	19
65	Cc1ccccc1Nc1c(-c2cccnc2)nc2cccc(C)n12	9
66	NS(=O)(=O)c1ccc(NC(=O)COC(=O)COc2ccc3ccccc3c2)cc1	9
67	Cc1cccc(NC(=O)c2nc[nH]c2C(=O)N[C@@H](Cc2ccccc2)C(=O)OCc2ccccc2)c1	8
68	COC(=O)c1ccc(NCC(=O)Nc2cc(C)cc(C)c2)cc1	16
69	CC(=O)c1ccc(NC(=O)CC(NCCC2=CCCCC2)C(=O)O)cc1 (centres undefined)	14
70	N#C/C(=C\Nc1ccc2cn[nH]c2c1)c1nc(-c2ccc(Cl)cc2)cs1	2
71	NS(=O)(=O)c1ccc2nc(NC(=O)c3ccc(Br)o3)sc2c1	10
72	COc1ccc(C)cc1S(=O)(=O)n1nc(C)cc1C	24
73	COc1ccc2nc(C)cc(SCC(=O)N/N=C/c3c(OC)ccc4ccccc34)c2c1	8
74	O=C(COC(=O)c1oc2ccccc2c1CSc1ccc(Cl)cc1)NC1CCCC1	12
75	O=C(CNC(=S)N(CCCN1CCOCC1)Cc1cccs1)NCCCN1CCOCC1	3
76	COc1ccccc1/C=N/NC(=O)c1ccc(-c2ccccc2)cc1	18
77	CC(=O)[C@H]1[C@H](CCc2ccccc2)NC(=O)N(Cc2ccccc2)[C@@H]1C	13
78	CC1c2ccsc2CCN1C(=O)NC(=O)c1ccc(Cl)cc1 (centres undefined)	17
79	Cc1ccc(C(=O)N/N=C\C=C\c2ccccc2[N+](=O)[O-])cn1	17
80	CC(NC(=O)C(=O)NN=C1CCC(C(C)(C)C)CC1)c1ccccc1 (centres undefined)	16

Values in list order from the entries so far:
Nos. 71–80 in Calb biofilm kill read 10, 24, 8, 12, 3, 18, 13, 17, 17, 16

Further records.
No.	structure	Calb biofilm kill
81	CC1CN(Cc2csc(-c3ccc(Cl)cc3)n2)CC(C)O1 (centres undefined)	12
82	CCC(=O)NC(c1cccs1)c1cc(Cl)c2cccnc2c1O (centres undefined)	15
83	Cc1ccc(C)c(Nc2nc(N)c3ccccc3n2)c1	13
84	CCC(C)NC(=O)CCC(=O)Nc1ccc2nc(N3CC(C)CC(C)C3)cc(C)c2c1 (centres undefined)	11
85	CC(C)C1Cc2c(sc3c2c(=O)n(-c2ccccc2)c2n[nH]c(=S)n32)CO1 (centres undefined)	34
86	O=C1NC(=O)/C(=C/C(=O)N2CCOCC2)S1	11
87	COc1cc2c(cc1OC)CN(CC(=O)Nc1ccc(S(=O)(=O)N(C)C)cc1)CC2	10
88	Cc1ccc(NC(=O)C(C)OC(=O)CCNS(=O)(=O)c2ccc(C)cc2)cc1 (centres undefined)	9
89	COC(=O)C1=C(C)N(c2ccccc2)/C(=C/c2ccco2)C1=O	16
90	CC1C(=O)NN=C1C(=O)N/N=C\C(Br)=C\c1ccccc1 (centres undefined)	9
91	NS(=O)(=O)c1ccc(CCNC(=O)C(=O)C2C(=O)Nc3ccccc32)cc1 (centres undefined)	27
92	Cn1c(=O)c2c(ncn2CCC(=O)N/N=C/c2ccccc2)n(C)c1=O	15
93	O=C(CS(=O)(=O)c1cn(Cc2ccccc2Cl)c2ccccc12)N1CCOCC1	12
94	COc1ccc(CCN2C(=O)CSC2=Nc2ccc(C)cc2C)cc1OC	21
95	Cc1cccc(-c2noc(CN(C(=O)/C=C/c3ccccc3Cl)C(C)C)n2)c1	8
96	O=[N+]([O-])c1ccc(/C=C/c2ccncc2)cc1	19
97	CC(CCc1ccccc1)NC(=O)CN(C)Cc1ccccc1F (centres undefined)	11
98	Cc1ccc(-n2nc(CN3CCOCC3)c(-c3ccccc3)c2N)cc1Cl	10
99	Cc1cccc(-c2nc3sc(C)cc3c(=O)o2)c1	18
100	COc1ccc(-c2nn(-c3ccccc3)cc2/C=N/Nc2cccc(C(=O)O)c2)cc1	11
101	Cc1c(NC(=S)N2CCN(c3ccc(F)cc3)CC2)c(=O)n(-c2ccccc2)n1C	5
102	CC(=O)c1sc2nc(C)c3c(c2c1N)CCCC3	26
103	Cc1nn(CC(=O)OCC(=O)Nc2c(C(C)C)cccc2C(C)C)c(C)c1[N+](=O)[O-]	8
104	Cc1ccc(NC(=O)c2cc(F)c(F)cc2Cl)nc1	-2
105	COc1cccc(C(=O)COc2ccc3c(C)c(Cc4ccccc4)c(=O)oc3c2C)c1	12
106	Nc1cccc(S(=O)(=O)Nc2ccc(SC(F)F)cc2)c1	3
107	Cc1cc(=O)[nH]c(SCc2nc3ccc([N+](=O)[O-])cc3[nH]2)n1	8
108	COc1ccc(C(C)=O)cc1CSc1nncn1-c1ccccc1	22
109	COc1cc(/C=N\Nc2nc3ccccc3o2)cc(OC)c1OC	10
110	CC1CN(C(=S)NC(=O)C2CCCCC2)CC(C)O1 (centres undefined)	14
111	Cc1ccc(Cn2ccc(O)c(Cc3ccccc3)c2=O)cc1	-7
112	Cc1cc(C)cc(OCC(=O)NC2CCCc3ccccc32)c1 (centres undefined)	11
113	COc1ccc(-c2[nH]c(-c3ccc(C)cc3)nc2SCC(=O)NC2CCCC2)cc1	6
114	O=C(COC(=O)c1cc(-c2ccccc2)nc2ccccc12)Nc1ccc2c(c1)OCO2	5
115	O=C(Nc1ccccc1)c1ccc(-c2ccc(F)cc2)s1	15
116	CCCCCCCC(=O)Nc1ccc(S(=O)(=O)Nc2nccs2)cc1	8
117	CN(Cc1ccccc1)C(=O)N1CCOCC1	10
118	COc1cc(/C=N/NC(=O)c2cccc([N+](=O)[O-])c2)ccc1OC(=O)c1ccco1	15
119	Cn1c(SCC(=O)NCc2cccs2)nnc1-c1ccc(O)cc1	20
120	CCOC(=O)Nc1csnn1	20
121	O=C(NNC(=O)C1CCN(c2ncccn2)CC1)c1ccncc1	2
122	O=C(NC1CCN(Cc2ccccc2)CC1)c1ccc2c(c1)[nH]c(=O)n2Cc1ccc(F)cc1	14
123	Cc1ccc(CSc2nnc(-c3ccc(NS(=O)(=O)c4ccccc4)cc3)o2)cc1	14
124	COC(=O)CN(c1cc(Cl)ccc1OC)S(=O)(=O)c1ccc(C)cc1	13
125	O=C(COc1cccc2cccnc12)N/N=C/c1cccn1-c1ccc(F)cc1	16
